DUX4 inh = blocks DUX4-driven transcriptional activation; 293T-iDUX4 ZSCAN4-Gaussia luciferase reporter, 24 h; stronger effect = lower value; activity change, negative = inhibition, % (no concentration beside the values); 37,000 compounds, 0.8% hits;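 active = -10% or lower and over 25 points stronger than a control reporter; inconclusive = -10% or lower with a smaller gap; inactive = above -10%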;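 also: 0% = median of neutral control wells and -100% = median of positive control wells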
DUX4 inh difference = second read-out of DUX4 inh, no call of its own (marks repeat the call); Gaussia minus Italica difference, %; measured here: selective DUX4 reporter inhibition;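 worked out from the two reporters; negative = selective loss of the DUX4 reporter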
DUX4 inh control = also measured in DUX4 inh; calls as there; activity change, negative = inhibition, %; measured here: Italica tet-on control reporter;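 0 = neutral control and -100 = positive control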
Starred values were filed as active, the others as inactive; ? = inconclusive; nt = no result given; & = joins results of further samples.

no. | molecule | DUX4 inh | DUX4 inh difference | DUX4 inh control
1 | Cn1cnc(CCNC(=O)C[C@H]2CC[C@@H]3[C@H](COC[C@@H](O)CN3C(=O)Nc3ccc(Cl)cc3)O2)c1 | -4.0 | -9.8 | 5.9
2 | O=C(Cc1ccccn1)N1CC(=O)N2[C@H](C1)[C@@H](c1ccc(C#CC3CC3)cc1)[C@@H]2CO | 6.4 | -2.4 | 8.8
3 | CC(=O)NC[C@H]1[C@H](c2ccc(-c3ccccc3)cc2)[C@@H](CO)N1C(=O)C1CC1 | 3.5 | 0.3 | 3.2
4 | N#C[C@H]1N[C@H](CO)[C@H]1c1ccccc1 | 1.2 | 2.2 | -1.0
5 | C[C@H](O)C#Cc1cnc2c(c1)C(=O)N([C@@H](C)CO)C[C@@H](C)[C@@H](CN(C)C(=O)CN1CCOCC1)O2 | 4.6 | 3.8 | 0.8
6 | CCCNC(=O)N1C[C@@H](O)COC[C@@H]2O[C@@H](CC(=O)NCc3ccc(Cl)c(Cl)c3)CC[C@H]21 | 1.8 | 5.4 | -3.6
7 | CO[C@H]1CN(C)C(=O)c2cc(NC(=O)CC(F)(F)F)ccc2OC[C@H](C)N(CC2CC2)C[C@@H]1C | -1.9 | -6.6 | 4.6
8 | C[C@@H]1CN([C@@H](C)CO)C(=O)c2cc(C3=CCCCC3)cnc2O[C@@H]1CN(C)C(=O)Cc1ccncc1 | -1.9 | -1.3 | -0.5
9 | O=C(CN1CCOCC1)N1CC(=O)N2[C@H](CO)[C@@H](c3ccc(/C=C/c4ccccc4)cc3)[C@@H]2C1 | 1.5 | -0.5 | 2.0
10 | CCN1[C@H](C(=O)NCCN2CCCCC2)[C@@H](CO)[C@@H]2Cn3c(ccc(-c4ccc(OC)cc4)c3=O)[C@@H]21 | 4.9 | 1.3 | 3.6
11 | CO[C@H]1CN(C)C(=O)c2ccc(NC(=O)C3CC3)cc2OC[C@@H](C)N(C(=O)c2ccccc2F)C[C@@H]1C | -3.4 | -3.3 | -0.1
12 | COc1ccc2c3c([nH]c2c1)[C@@H](CO)N(Cc1ccccc1)CC31CN(C(C)=O)C1 | ? | nt | nt
13 | C[C@@H]1CN([C@H](C)CO)C(=O)c2cc(NC(=O)CCCCCC(=O)Nc3ccccc3N)ccc2O[C@@H](C)CCCCO[C@H]1CN(C)Cc1ccc(Cl)c(Cl)c1 | -4.0 | -3.0 | -1.0
14 | CNC[C@H]1Oc2ccc(NC(=O)Nc3ccc(C(F)(F)F)cc3)cc2CC(=O)N([C@@H](C)CO)C[C@H]1C | 0.6 | 3.3 | -2.7
15 | O=C1CN(Cc2ccccc2)C[C@@H]2[C@H](c3ccc(Br)cc3)[C@@H](CO)N12 | 3.8 | -3.9 | 7.8
16 | CN(C)C(=O)c1cccc(-c2ccc3c(c2)[C@H]2[C@H](CCN2C(=O)Cc2ccccn2)[C@@H](CO)N3C)c1 | 13.9 | 18.1 | -4.2
17 | Cc1noc(C)c1NC(=O)N(C)C[C@H]1OCCCC[C@H](C)Oc2ccc(NS(=O)(=O)c3cn(C)cn3)cc2C(=O)N([C@@H](C)CO)C[C@@H]1C | -1.7 | -0.7 | -1.0
18 | C[C@H]1CN([C@@H](C)CO)C(=O)c2c(c3ccccc3n2C)-c2ccccc2CO[C@@H]1CN(C)C(=O)[C@H](Cc1ccccc1)N(C)C | ? | nt | nt
19 | CCCNC(=O)[C@@H]1[C@@H](CO)[C@@H]2Cn3c(ccc(/C=C/c4ccccc4)c3=O)[C@H]1N2C(=O)c1cccnc1 | 2.2 | 2.6 | -0.3
20 | CN1C[C@@H]2[C@H](c3ccccc31)[C@H](CO)N2Cc1ccccc1F | 0.1 | 0.4 | -0.3
21 | CO[C@@H]1CN(C)C(=O)c2cc(NC(=O)NC3CCCCC3)ccc2OC[C@@H](C)N(CC2CCOCC2)C[C@@H]1C | 4.9 | -3.0 | 7.9
22 | CCCNC(=O)C[C@H]1CC[C@@H]2[C@H](COC[C@@H](O)CN2C(=O)c2cc(Cl)cc(Cl)c2)O1 | 13.5 | 6.8 | 6.7
23 | CN1C(=O)c2cc(NC(=O)Cc3cccs3)ccc2OC[C@H]2O[C@@H](CC(=O)NCCc3ccncc3)CC[C@@H]21 | 3.9 | -2.8 | 6.7
24 | C[C@H](O)C#Cc1ccc([C@H]2[C@H]3CN(C(=O)c4cccc(F)c4)CCCCN3[C@H]2CO)cc1 | -7.9 | 7.0 | -14.9
25 | COCC(=O)NC[C@@H]1N[C@@H](CO)[C@H]1c1ccc(-c2ccccc2F)cc1 | -1.7 | 1.1 | -2.8
26 | O=C(C1CCC1)N1C[C@H]2[C@@H](c3ccccc31)[C@H](CO)N2C(=O)Nc1cccc(F)c1 | 0.4 | 2.0 | -1.6
27 | COc1cccc(C(=O)Nc2ccc3c(c2)OC[C@H](C)N(CCc2ccccc2)C[C@@H](C)[C@@H](OC)CN(C)C3=O)c1 | ? | nt | nt
28 | C/C=C/c1ccc([C@@H]2[C@@H](CN(C)C(=O)NC3CCCC3)N(C(C)=O)[C@H]2CO)cc1 | -3.0 | -3.0 | -0.1
29 | CC(=O)NC[C@H]1[C@@H](c2ccc(C#CC(C)C)cc2)[C@@H](CO)N1C(=O)C1CC1 | -2.6 | 2.4 | -5.0
30 | CC=Cc1ccc2n(c1=O)C[C@H]1[C@H](CO)[C@@H](C(=O)NCc3ccc(F)cc3)N(Cc3cncnc3)[C@@H]21 (mixture of isomers) | 7.1 | 2.0 | 5.1

A different layout for part of the listing above.
[23] CN1C(=O)c2cc(NC(=O)Cc3cccs3)ccc2OC[C@H]2O[C@@H](CC(=O)NCCc3ccncc3)CC[C@@H]21
[22] CCCNC(=O)C[C@H]1CC[C@@H]2[C@H](COC[C@@H](O)CN2C(=O)c2cc(Cl)cc(Cl)c2)O1
[18] C[C@H]1CN([C@@H](C)CO)C(=O)c2c(c3ccccc3n2C)-c2ccccc2CO[C@@H]1CN(C)C(=O)[C@H](Cc1ccccc1)N(C)C
[5] C[C@H](O)C#Cc1cnc2c(c1)C(=O)N([C@@H](C)CO)C[C@@H](C)[C@@H](CN(C)C(=O)CN1CCOCC1)O2
[8] C[C@@H]1CN([C@@H](C)CO)C(=O)c2cc(C3=CCCCC3)cnc2O[C@@H]1CN(C)C(=O)Cc1ccncc1

Compound | 23 | 22 | 18 | 5 | 8
DUX4 inh | 3.9 | 13.5 | ? | 4.6 | -1.9
DUX4 inh difference | -2.8 | 6.8 | nt | 3.8 | -1.3
DUX4 inh control | 6.7 | 6.7 | nt | 0.8 | -0.5

Going on with the list:
no. | molecule | DUX4 inh | DUX4 inh difference | DUX4 inh control
31 | CN(C)C(=O)c1ccc(-c2ccc(C3[C@H]4CNC[C@@H]3N4Cc3ccccn3)cc2)cc1 (stereo not given in full) | 13.5 | 5.0 | 8.4
32 | COc1cccc(S(=O)(=O)Nc2ccc3c(c2)[C@H]2C[C@@H](CC(=O)N4CCCCC4)O[C@H](CO)[C@H]2O3)c1 | -5.0 | -1.7 | -3.3
33 | O=C(Nc1ccc(F)cc1)N1C[C@H]2[C@@H](c3ccccc31)[C@H](CO)N2C(=O)c1ccccn1 | 3.4 | 1.8 | 1.6
34 | N#Cc1cccc(-c2ccc3c(c2)[C@H]2[C@H](CCN2C(=O)CN2CCOCC2)[C@H](CO)N3)c1 | 0.8 | 0.7 | 0.1
35 | CCCN(C)C[C@@H]1OCCCC[C@@H](C)Oc2ccc(NS(=O)(=O)c3ccc(C)cc3)cc2C(=O)N([C@@H](C)CO)C[C@@H]1C | 1.7 | -3.0 | 4.7
36 | C[C@H]1CN([C@@H](C)CO)S(=O)(=O)c2ccc(Br)cc2O[C@@H]1CN(C)C(=O)c1cccnc1 | -3.1 | -3.2 | 0.1
37 | C/C=C/c1ccc([C@H]2[C@@H](CO)N(S(C)(=O)=O)[C@@H]2CN(C)C(=O)CC)cc1 | -6.0 | -2.6 | -3.3
38 | COc1ccccc1NC(=O)N[C@H]1CC[C@@H](CC(=O)N[C@@H](C)c2ccccc2)O[C@H]1CO | 0.0 | -5.2 | 5.2
39 | C[C@@H]1CN([C@H](C)CO)C(=O)c2cc(NC(=O)C3CC3)ccc2O[C@H]1CN(C)S(=O)(=O)c1ccccc1 | -4.5 | 3.2 | -7.8
40 | O=C(C1CCC1)N1CCCCN2[C@H](CO)[C@@H](c3ccc(-c4ccncc4)cc3)[C@H]2C1 | 2.3 | 8.3 | -6.0
41 | CN(C)C(=O)C[C@H]1CC[C@H](NC(=O)C2CCOCC2)[C@H](CO)O1 | 10.0 | 7.6 | 2.5
42 | C[C@@H]1CN([C@@H](C)CO)C(=O)CCCn2nncc2CO[C@H]1CN(C)S(=O)(=O)c1ccc(Oc2ccccc2)nc1 | 2.6 | 1.6 | 1.0
43 | CC(C)C[C@H]1COCc2cn(nn2)CC[C@@H](Cc2cccc(Cl)c2)C(=O)N1 | 3.0 | -0.6 | 3.6
44 | O=C(N[C@H]1CC[C@H](CC(=O)N2CCCCC2)O[C@@H]1CO)c1ccccn1 | 3.9 | -0.3 | 4.2
45 | COc1ccc(S(=O)(=O)Nc2ccc3c(c2)C(=O)N([C@@H](C)CO)C[C@@H](C)[C@@H](CN(C)S(=O)(=O)c2cn(C)cn2)OCCCC[C@@H](C)O3)cc1 | 9.5 | 5.0 | 4.5
46 | O=S(=O)(NCC[C@@H]1CC[C@@H](NS(=O)(=O)c2cccc(Cl)c2)[C@H](CO)O1)c1cccc(F)c1 | -2.2 | -2.2 | 0.0
47 | CN1[C@@H]2c3ccc(/C=C/c4ccccc4)c(=O)n3C[C@@H]2[C@@H](CO)[C@@H]1C(=O)N1CCCCC1 | -1.4 | 1.0 | -2.4
48 | COc1ccc(-c2ccc([C@H]3[C@@H](C#N)N(C(=O)NC4CCCCC4)[C@H]3CO)cc2)cc1 | 0.1 | -1.1 | 1.2
49 | N#Cc1ccc(-c2ccc(C3[C@H]4CNC[C@@H]3N4C(=O)Nc3ccc(F)cc3)cc2)cc1 (stereo not given in full) | 6.6 | 3.2 | 3.4
50 | COc1ccc(NC(=O)Nc2ccc3c(c2)[C@@H]2C[C@H](CC(=O)NCc4ccccc4F)O[C@@H](CO)[C@@H]2O3)cc1 | 6.5 | -2.8 | 9.3
51 | COc1ccccc1S(=O)(=O)N(C)C[C@@H]1Oc2cc(C#CCC(C)C)ccc2S(=O)(=O)N([C@@H](C)CO)C[C@@H]1C | -0.2 | -2.1 | 1.9
52 | CO[C@@H]1CC[C@@H]2CCOc3c(C#N)cccc3C(=O)N(C)CCCC(=O)N(C)C[C@H]1O2 | -1.8 | 0.1 | -1.9
53 | C[C@@H]1CN([C@H](C)CO)C(=O)CCCn2nncc2CO[C@H]1CN(C)Cc1ccc(C(F)(F)F)cc1 | -3.6 | 2.1 | -5.7
54 | C[C@H](O)C#Cc1ccc([C@@H]2[C@H](CO)N3CCCCN(S(=O)(=O)Cc4ccccc4)C[C@@H]23)cc1 | 17.4 | 12.9 | 4.5
55 | CO[C@H]1CN(C)C(=O)c2ccc(NC(=O)c3cnccn3)cc2OC[C@H](C)N(CC2CC2)C[C@@H]1C | 12.9 | 6.1 | 6.7
56 | C[C@H]1CN([C@@H](C)CO)C(=O)c2cc(C3=CCCC3)cnc2O[C@@H]1CN(C)C(=O)NC1CCCC1 | 1.4 | 18.2 | -16.8
57 | C[C@@H]1CN([C@@H](C)CO)C(=O)CCCn2cc(nn2)CO[C@@H]1CN(C)Cc1ccc(C(=O)Nc2ccccc2N)cc1 | ? | nt | nt
58 | Cc1noc(C)c1NC(=O)Nc1ccc2c(c1)C(=O)N([C@H](C)CO)C[C@H](C)[C@H](CN(C)Cc1ccc(C(=O)Nc3ccccc3N)cc1)OCCCC[C@@H](C)O2 | 6.6 | 6.6 | 0.0
59 | N#C[C@H]1[C@@H](c2ccccc2)[C@H](CO)N1C(=O)c1ccccc1F | -6.6 | -9.7 | 3.1
60 | CCCNC(=O)N1C[C@H]2[C@@H](c3ccccc31)[C@@H](CO)N2Cc1ccc(OC)cc1 | -2.3 | 0.0 | -2.3
61 | C[C@@H]1CN([C@@H](C)CO)C(=O)c2cc(NC(=O)CCC(F)(F)F)ccc2O[C@@H](C)CCCCO[C@H]1CN(C)C(=O)NC1CCCCC1 | 3.6 | -0.2 | 3.7
62 | CN(C)C(=O)C[C@H]1CC[C@@H]2[C@H](COc3ccc(NS(=O)(=O)c4cccc(F)c4)cc3C(=O)N2C)O1 | -2.3 | -0.5 | -1.8
63 | O=C(C[C@H]1C[C@H]2c3cc(NC(=O)NC4CCCCC4)ccc3O[C@H]2[C@H](CO)O1)NCc1cccnc1 | 6.1 | 5.0 | 1.1
64 | CNC[C@H]1Oc2ncc(-c3cncnc3)cc2C(=O)N([C@@H](C)CO)C[C@H]1C | 3.9 | 4.6 | -0.6
65 | C/C=C/c1ccc(C2[C@@H]3CN(C(=O)Nc4ccc(F)cc4)C[C@H]2N3)cc1 (stereo not given in full) | 4.5&-6.0 | 6.4&-12.1 | -1.9&6.1
66 | CCCNC(=O)N(C)C[C@H]1Oc2cc(C3=CCCC3)ccc2S(=O)(=O)N([C@@H](C)CO)C[C@H]1C | -1.3 | 3.5 | -4.7
67 | O=C(C[C@H]1C=C[C@@H](NC(=O)Nc2cccc(F)c2)[C@H](CO)O1)NCC1CCCCC1 | 6.4 | 9.6 | -3.3
68 | N#C[C@@H]1N[C@H](CO)[C@@H]1c1ccc(C#Cc2ccccc2F)cc1 | -6.3 | 6.2 | -12.5
69 | COc1ccc(S(=O)(=O)N[C@H]2CC[C@@H](CCn3cc(-c4ccccc4F)nn3)O[C@@H]2CO)cc1 | -7.0 | -0.4 | -6.6
70 | c1cc(-c2ccc(C3[C@H]4CNC[C@@H]3N4Cc3nccs3)cc2)ccn1 (stereo not given in full) | 12.4&12.0 | -6.5&21.6 | 18.9&-9.6

Of the compounds above, two have bromine:
no. | molecule | DUX4 inh | DUX4 inh difference | DUX4 inh control
15 | O=C1CN(Cc2ccccc2)C[C@@H]2[C@H](c3ccc(Br)cc3)[C@@H](CO)N12 | 3.8 | -3.9 | 7.8
36 | C[C@H]1CN([C@@H](C)CO)S(=O)(=O)c2ccc(Br)cc2O[C@@H]1CN(C)C(=O)c1cccnc1 | -3.1 | -3.2 | 0.1

Compound activity deposited in PubChem BioAssay by Broad Institute.

An excerpt, so the mix of outcomes need not match the whole.
